Screens from PubChem BioAssay.
VDR inhibitor – Inhibitors of the vitamin D receptor (VDR): qHTS. Potency, µM, without a hit: max response, negative = inhibition, hits mostly inhibitors. VDR-SRC2-3 peptide fluorescence polarization, 2 h. AID 504847, 2011. 400,000 tested, 0.93% active. Vitamin D3 receptor (Homo sapiens), P11473; active = well fitted inhibition curve with a large enough effect; inconclusive = small, poorly fitted or top-dose-only effect, or another doubt; inactive = no such curve, though single readings can be large or run the other way; also: series mostly up to about 120 µM
Target sequence (P11473 whole entry, looked up): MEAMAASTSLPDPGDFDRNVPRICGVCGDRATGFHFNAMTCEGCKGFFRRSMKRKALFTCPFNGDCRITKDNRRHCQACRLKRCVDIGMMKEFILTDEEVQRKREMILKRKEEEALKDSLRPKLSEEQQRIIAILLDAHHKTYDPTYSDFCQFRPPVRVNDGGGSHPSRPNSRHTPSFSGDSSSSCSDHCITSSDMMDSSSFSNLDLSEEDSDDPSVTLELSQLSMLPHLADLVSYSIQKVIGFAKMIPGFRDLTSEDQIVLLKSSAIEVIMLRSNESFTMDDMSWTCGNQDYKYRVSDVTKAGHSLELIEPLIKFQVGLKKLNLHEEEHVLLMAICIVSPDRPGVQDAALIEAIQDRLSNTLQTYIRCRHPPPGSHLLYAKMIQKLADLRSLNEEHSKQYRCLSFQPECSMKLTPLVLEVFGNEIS
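Compounds are added to VDR with labelled SRC2-3 coactivator peptide and held 2 h at room temperature. Inhibition of the VDR–peptide interaction is then read as a change in fluorescence polarization.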
* marks the source's active call; other numbers are inactive results; ? = inconclusive; & = joins results of further samples. % is scaled to controls: 0 for no effect and ±100 for the full control effect; potency is read from the fitted curve at half-maximal effect. Not all compounds are listed (hit frequency here may not be typical).

entry	structure	VDR inhibitor
1	CCC1Oc2ccc(C)cc2N(CC(=O)NCCCN2CCCCC2C)C1=O (stereo not given)	5%
2	Cc1cccc(NC(=S)NNC(=O)c2csc3c2CCC(C)C3)c1 (stereo not given)	-7%
3	O=C(CNc1cccc(S(=O)(=O)N2CCOCC2)c1)Nc1ccc(C(F)(F)F)cc1	-16%
4	COc1cc(C(=S)N2CCCC2)ccc1OC(=O)c1ccc(Cl)cc1[N+](=O)[O-]	1%
5	CC(C)Oc1ccc(CNC(=O)c2sc3ncccc3c2-n2cccc2)cc1	16%
6	O=C1Nc2ccc([N+](=O)[O-])cc2OC1CCN1CCOCC1 (stereo not given)	2%
7	NC(=O)c1ccc(N2CCCCCC2)c([N+](=O)[O-])c1	1%
8	CCOC(=O)C1(CC/C(C)=N\NC(N)=O)CC(C)(C)OC1=O (stereo not given)	-9%
9	Cc1ccc(S(=O)(=O)CCC(=O)OCc2ccccc2)cc1	8%
10	Nc1nnc(SCC(=O)c2ccc([N+](=O)[O-])cc2)s1	5%
11	COC(=O)/C=C/c1cnc[nH]1	-28%
12	Cc1c2c(n3c(nc4ccccc43)c1C#N)N(CCCN(C)C)CC2	-2%
13	CCc1ccc(NC(=O)CCc2c(C)nc3nc(-c4cc(OC)cc(OC)c4)nn3c2C)cc1	6%
14	Cc1nn(C(C)C(=O)NCCc2ccccc2)c(=O)c2c1sc1ccccc12 (stereo not given)	-6%
15	O=C(Nc1ccc(N2CCN(C(=O)c3ccccc3)CC2)cc1)c1ccc(Br)o1	7%
16	Cc1nc2cc(C(=O)NC3CCCCCC3)ccc2n1-c1ccc(Br)cc1	-9%
17	O=C(COC(=O)c1c(F)cccc1F)Nc1ccc(N2CCCCC2)cc1	15%
18	O=C(COC(=O)c1ccc2ccccc2c1O)NCc1ccccc1	-7%
19	COc1ccc(C(=O)NCc2ccc3c(c2)CCN3C(=O)c2ccc(C)cc2)cc1	9%
20	Cc1ccc(C2(C)NC(=O)N(CC(=O)N3CCN(S(=O)(=O)c4ccc(Cl)s4)CC3)C2=O)cc1 (stereo not given)	6%
21	Cc1cc(C)cc(-n2ccn(CC(=O)Nc3ccccc3C(F)(F)F)c(=O)c2=O)c1	7%
22	COC(=O)c1cc(Cl)cc2c(CCO)c[nH]c12	3%
23	NC(=O)C1(N2CCCCC2)CCN(C(=O)c2ccccc2)CC1	-6%
24	CC(=O)c1cccc(NC(=O)Nc2ccc(C(=O)N3CCOCC3)cc2)c1	-16%
25	CSc1ccccc1NC(=O)CCc1ccccc1	-4%
26	CCc1nnc(SCC(=O)Nc2nnc(C)s2)n1CC1CCCO1 (stereo not given)	-1%
27	CCOC(=O)c1c(NC(=O)CN2CCCc3ccccc32)sc(C)c1C	-17%
28	COc1cc(/C=N/Nc2nc(-c3ccc(S(=O)(=O)N(C)C)cc3)cs2)ccc1O	-19%
29	CCN1CCN(C(=O)CSc2nc(N)cc(N)n2)CC1	-14%
30	CCCCOc1ccc(CNC(=O)C2COc3ccc(OC)cc3C2)cc1 (stereo not given)	-3%

Later entries
entry	structure	VDR inhibitor
31	COc1ccc(OC)c(C2=NS(=O)(=O)N(C)C(C(=O)NCc3ccco3)=C2)c1	-10%
32	Cn1c(=O)n(Cc2ccccc2)c(=O)c2c1nc1n2CCN1Cc1ccco1	-24%
33	COCCn1c(=S)[nH]c2ccccc21	-6%
34	COc1ccc(/C=N/NC2=NCCCCC2)cc1	13%
35	COCCN1C(=O)/C(=C/c2ccc(N3CCCC3)cc2)SC1=S	-3%
36	CCOc1ccccc1NC(=O)C1=C(C)Nc2ncnn2C1c1ccco1 (stereo not given)	11%
37	Cc1cc(NC(=S)N(Cc2ccc(Cl)cc2)Cc2ccc(C(=O)O)cc2)ccc1Cl	-13%
38	CCOc1ccc2oc(C(=O)NC(C)(C)CC)c(C)c2c1	-4%
39	CCCN(CCC)CCCOC(=O)c1ccc(Cl)cc1Cl	6%
40	CCOc1ccc(-c2csc(NNC3=NCCCCC3)n2)cc1	?
41	Cc1c(C(C)(C)C)sc(=NC(=O)c2ccccc2O)n1C	-1%
42	C/C(=C\c1ccccc1)C(=O)NCCc1ccccc1	12%
43	CC(=O)N1CCc2cc(S(=O)(=O)NC(Cc3ccccc3)C(=O)NC3CCCCCC3)ccc21 (stereo not given)	6%
44	CCOC(=O)c1cc(-c2ccc(F)cc2)n(CC(=O)NC(C)CC)c1C (stereo not given)	-19%
45	CC/C(=N\NC(=O)CCC(=O)NCc1ccccc1)c1ccc(O)cc1	12%
46	CC1CN(C(=O)C2(C)CC2(Br)Br)CC(C)O1 (stereo not given)	-18%
47	COc1cc(N)c2ncsc2c1	-10%
48	O=C(COc1nncc2ccccc12)Nc1ccc(F)c(F)c1	-21%
49	C=CCc1cccc(/C=N/NC(=O)c2ccc3nc[nH]c3c2)c1O	3%
50	COc1cccc(C2NC(=O)NC(C)=C2C(=O)Nc2ccc(C)cc2)c1OC (stereo not given)	-4%
51	CCOc1ccc(CCNC(=O)c2cc3cccc4c3n2CCS4)cc1	7%
52	COc1ccccc1CNc1nc2ccccc2n1CCN1CCCCC1	-4%
53	Cc1nnc(SCC(=O)Nc2ccc([N+](=O)[O-])cc2)n1C	2%
54	COc1ccc(-n2ncc3c(=O)n(CC(=O)Nc4ccc5c(c4)OCCO5)cnc32)cc1	25%
55	O=C(Nc1ccccc1)C(Cl)C(=O)c1ccccc1 (stereo not given)	?
56	COc1cccc(CNC(=O)c2cc(C)nc3c2c(C)nn3-c2ccc(C)cc2)c1	14%
57	COc1ccccc1/C=N/NC(=O)C(=O)NCc1cccnc1	-3%
58	COc1cccc(NC(=O)C2CCN(C(=O)NC3CCCCC3)CC2)c1	3%
59	COc1ccccc1-c1nnc(C2CCN(S(=O)(=O)c3cccc([N+](=O)[O-])c3)CC2)o1	-20%
60	O=C(Nc1ccccc1Cl)C1CCCN(S(=O)(=O)c2ccc(F)cc2)C1 (stereo not given)	10%

Later entries.
entry	structure	VDR inhibitor
61	Cc1cc2cc(CN3C(=O)c4ccccc4C3=O)ccc2[nH]1	5%
62	CCN(CC)CCNC(=S)Nc1ccc2nc(N3CCOCC3)cc(C)c2c1	-26%
63	Cc1cccc(OCC(=O)Nc2ccc3c(c2)nc(CN2CCCCC2)n3C)c1	12%&13%
64	CN1CCN(C2=NCCO2)CC1	13%
65	CCOc1ccccc1C(=O)NCC(=O)NCCc1ccc(S(N)(=O)=O)cc1	-11%
66	CC(NC(=O)CCc1nnc(-c2ccc(-c3ccccc3)cc2)o1)c1nccs1 (stereo not given)	-13%
67	Cc1cc(C)nc(NN=C(c2ccccc2)c2ccccc2)n1	0%
68	COc1ccc(C)cc1NC(=O)CCCN1C(=O)C(c2ccccc2)Oc2cccnc21 (stereo not given)	4%
69	CCOC(=O)C1CCN(C(=O)COc2ccc(S(=O)(=O)N3CCOCC3)cc2C)CC1	9%
70	CC(=O)c1c(C)n(-c2ccccc2)c2ccc(OCC(O)CN3CCOCC3)cc12 (stereo not given)	1%
71	O=C(Nc1nc2ccccc2s1)c1ccc([N+](=O)[O-])o1	-14%
72	O=S(=O)(c1ccc(Br)s1)N1CCC2(CC1)OCCO2	-8%
73	CC(=O)N1c2cc3ccccc3cc2N(C(C)=O)c2cc3ccccc3cc21	-10%
74	CCOC(=O)C1=C(CS(=O)(=O)c2ccc(C)cc2)NC(=O)NC1c1ccc(O)c(OC)c1 (stereo not given)	-14%
75	ClC(Cl)(c1nnnn1-c1ccccc1)c1nnnn1-c1ccccc1	3.5µM*
76	O=C(COC(=O)c1cc(-c2ccccc2)nc2ccccc12)NCC1CCCO1 (stereo not given)	-16%
77	C/C=C(/C)C(=O)Nc1cccc(C2=NOC3(C2)C[C@H](C(N)=O)N(C(=O)COc2ccc(Cl)cc2)C3)c1 (stereo not given in full)	-1%
78	CC(=O)C1=C(O)C(=O)N(c2ccc(O)cc2)C1c1ccccc1[N+](=O)[O-] (stereo not given)	5%
79	O=C(NCc1ccc2c(c1)OCO2)c1cc(-c2ccncc2)nc2ccccc12	1%
80	COCCNC(=S)NC(=O)c1ccc(C(C)(C)C)cc1	8%
81	CCOC(=O)c1ccccc1NC(=O)c1cc(S(=O)(=O)N2CCOCC2)ccc1F	-1%
82	O=C(CSc1cccc[n+]1[O-])Nc1cc(Cl)ccc1[N+](=O)[O-]	-11%
83	COC(=O)c1ccccc1NC(=O)NN1CCN(C)CC1	-8%
84	CCOC(=O)c1[nH]c(C)c(CCC(=O)NCc2cccc(C)c2)c1C	1%
85	Cc1cc(NC(=O)CCC(=O)N(c2ccc(F)cc2)C(C(=O)NC2CCCC2)c2ccccc2)no1 (stereo not given)	2%
86	CCc1ccccc1-n1c2c(cc(-c3nc(-c4ccc(Cl)cc4)cs3)c1=O)C(=O)CC(C)(C)C2	-5%
87	Cc1nc(N)sc1C(=O)N/N=C/c1c[nH]c2ccccc12	1%
88	CN1CCC(N(C)S(=O)(=O)c2ccc(NC(=O)COc3ccc(Br)cc3Cl)cc2)CC1	15%
89	CC(C)CCNC(=O)C1CC(=O)N(CCc2ccccc2)C1 (stereo not given)	3%
90	Cc1ccc(CNC(=O)C2CCCN(c3nc4ccsc4c(=O)s3)C2)cc1 (stereo not given)	20%

Among those listed so far, six have an aryl thioether with sulfur outside any ring.
entry	structure	VDR inhibitor
10	Nc1nnc(SCC(=O)c2ccc([N+](=O)[O-])cc2)s1	5%
25	CSc1ccccc1NC(=O)CCc1ccccc1	-4%
26	CCc1nnc(SCC(=O)Nc2nnc(C)s2)n1CC1CCCO1 (stereo not given)	-1%
29	CCN1CCN(C(=O)CSc2nc(N)cc(N)n2)CC1	-14%
53	Cc1nnc(SCC(=O)Nc2ccc([N+](=O)[O-])cc2)n1C	2%
82	O=C(CSc1cccc[n+]1[O-])Nc1cc(Cl)ccc1[N+](=O)[O-]	-11%

Other structures
entry	structure	VDR inhibitor
91	COC(=O)c1cc(NC(=O)CCc2c(C)nc3ncnn3c2C)cc(C(=O)OC)c1	-12%
92	COc1cc(OC)c2c(-c3ccccc3)cc(=O)oc2c1C(CCN1CCCC(C)C1)c1ccc2c(c1)OCO2 (stereo not given)	3%&6%
93	O=C(c1cc(-c2ccc(Cl)cc2Cl)on1)N1CCOCC1	20%
94	C=C(C)C(=O)Nc1nnc(-c2ccccc2C)s1	-5%
95	O=C(CN1CCC(O)(c2cccc(C(F)(F)F)c2)CC1)NCCc1ccccc1	-16%
96	COc1ccccc1NC(=O)Nc1ccncc1	0%
97	Cc1cccc(C)c1NC(=O)N1CC(C)OC(C)C1 (stereo not given)	-7%
98	O=C(Nc1cccc(-c2ccc(N3CCOCC3)nn2)c1)c1ccc(F)cc1F	-17%
99	Cc1cccc(NS(=O)(=O)c2ccc(C(=O)N3CCCC3)cc2)c1C	-13%
100	CC1Cc2ccccc2N1S(=O)(=O)c1cnc[nH]1 (stereo not given)	4%
101	Cc1nn(C(CC(=O)O)C(=O)O)c(C)c1Br (stereo not given)	9%
102	Cc1ccc(NC(=O)Nc2nnc(-c3ccncc3)s2)cc1	-3%
103	CC(=O)c1ccc(OCC(C)Oc2ccc(C#N)cc2)cc1 (stereo not given)	-5%
104	CC(C)CC(NC(=O)C(CC(C)C)NC(=O)OC(C)(C)C)C(=O)O (stereo not given)	-3%
105	N#CCSc1nc2ccccc2c2nc3ccccc3n12	-9%
106	Cc1cc(C(F)(F)F)nc(Nc2nc(C)c3ccccc3n2)n1	2%
107	Cc1cc(NC(=O)CSc2nnc3ccc(-c4ccc(F)cc4)nn23)no1	-10%
108	CC(C)(C)c1ccc(C(=O)NC(=S)Nc2ccc(N3CCOCC3)cc2)cc1	7%
109	c1ccc(-c2cc(-c3nc4ccccc4[nH]3)c3ccccc3n2)cc1	1%
110	CCOc1ccc(NC(=O)CN(C)C(=O)CC2CC3CCC2C3)cc1OCC (stereo not given)	-2%
111	C[C@H](NC(=O)[C@@H]1CSC2c3ccccc3C(=O)N21)C(=O)NCCc1ccc(F)cc1 (stereo not given in full)	?
112	CCCCN1C(=O)c2ccc(C(=O)Nc3ccc(C)c(S(=O)(=O)N(C)C)c3)cc2C1=O	1%
113	O=C(N/N=C/c1cccs1)[C@H]1C[C@@H]1c1ccccc1	-1%
114	O=C(Nc1ccc2c(c1)OCCO2)C1CCCN(S(=O)(=O)c2cccc3nsnc23)C1 (stereo not given)	-3%
115	C=C(C)C(=O)OCC(C)C	?
116	COc1ccccc1CCN1CCCC(CN(C)C(=O)CCC(N)=O)C1 (stereo not given)	27%
117	Cc1ccc(NS(=O)(=O)c2ccc(-n3cccn3)cc2)cc1Cl	15%
118	Cc1ccc(C2C(C#N)=C(N)Oc3cc(C)oc(=O)c32)o1 (stereo not given)	-29%
119	O=S(=O)(NCCCN1CCOCC1)c1ccc2ccccc2c1	7%
120	CCN(CC)C(=O)Cn1cnc2sc(C)c(S(=O)(=O)N3CCC(C)CC3)c2c1=O	-15%

Copied from the list.
no. 87 in VDR inhibitor reads 1%
no. 7 in VDR inhibitor reads 1%

Three records drawn at random from those above, as already listed:
entry	structure	VDR inhibitor
119	O=S(=O)(NCCCN1CCOCC1)c1ccc2ccccc2c1	7%
120	CCN(CC)C(=O)Cn1cnc2sc(C)c(S(=O)(=O)N3CCC(C)CC3)c2c1=O	-15%
105	N#CCSc1nc2ccccc2c2nc3ccccc3n12	-9%

(more compounds)
entry	structure	VDR inhibitor
121	CC(=O)c1cc2c(cc1NC(=O)Cn1cnc3ccccc3c1=O)OCO2	-3%
122	CCOc1ccc(OCC)c(NC(=O)C2CCCN(S(=O)(=O)c3ccc4c(c3)oc(=O)n4C)C2)c1 (stereo not given)	2%
123	COc1ccc(/C=C/C(=O)NC(=S)N2CCOCC2)cc1	1%
124	CN(CC(=O)Nc1ccc(S(=O)(=O)N2CCOCC2)cc1)Cc1ccc(F)cc1	-17%
